Screening results deposited in PubChem BioAssay by National Center for Advancing Translational Sciences (NCATS).
gsp ag: gsp mutant agonism. AID 624287. gsp mutant cells, cAMP HTRF, 30 min; control for the full effect not named in the record. 340,000 tested, 0.13% active. Potency, µM (titrated, usually from 76.9 µM), inactives show at the top dose activation (cAMP increase), actives largely listed as activators; active = well fitted activation curve with a large enough effect; inconclusive = small, poorly fitted or top-dose-only effect, or another doubt; inactive = no such curve, though single readings can be large or run the other way; cell line not stated here;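 also: phosphodiesterase inhibitor Ro 20-1724 added with compounds to block cAMP breakdown; potency is read from the fitted curve at half-maximal effect; nearly all actives have a fitted effect of over 60% in size; about a fifth of the inactives were tested at one dose only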
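Cells stably selected in G418 were plated at 2000/well, grown 16-24 hr, then given compounds in DMSO with the PDE inhibitor […] (300 uM solution added) for 30 min at 37C; cAMP was read by HTRF.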
gsp antag: antagonists of gsp mutant (McCune-Albright syndrome) | gsp-mutant cells, cAMP HTRF, 30 min; control for the full effect not named in the record | Potency, µM (doses to about 76.9 µM), for inactives: at the top dose activity change, negative = inhibition, usual class: inhibitors | 340,000 tested, 0.4% active | AID 624288; active = falling curve of any shape with a large fitted effect; inconclusive = falling curve, mostly with a smaller effect; inactive = flat or rising curve; cell line not stated here;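 also: intracellular cAMP measured with PDE inhibitor Ro 20-1724 present during compound exposure; potency is read from the fitted curve at half-maximal effect; % is scaled to controls: 0 for no effect and ±100 for the full control effect; nearly all actives have a fitted effect of over 65% in size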
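HTRF cAMP measurement after 30 min RT detection following 30 min, 37C compound treatment alongside […] (added as 300 uM solution) in G418-selected cells seeded at 2000/well and grown 16–24 h.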
Six1-Eya2 blk: inhibitors of human Six1/Eya2 interaction; Q15475+O00167; AlphaScreen GST-Six1/His-Eya2 binding, biochemical; stronger effect = lower value; control for the full effect not named in the record; activity change, % (test concentration not listed); 360,000 tested, 0.56% active; AID 651725; in the data active = activity change below about -65%; inconclusive = about -30% to -65%; inactive = above about -30%; also: % is scaled to controls: 0 for no effect and ±100 for the full control effect; compound concentration not given in the record
Target sequence (O00167 whole entry, looked up): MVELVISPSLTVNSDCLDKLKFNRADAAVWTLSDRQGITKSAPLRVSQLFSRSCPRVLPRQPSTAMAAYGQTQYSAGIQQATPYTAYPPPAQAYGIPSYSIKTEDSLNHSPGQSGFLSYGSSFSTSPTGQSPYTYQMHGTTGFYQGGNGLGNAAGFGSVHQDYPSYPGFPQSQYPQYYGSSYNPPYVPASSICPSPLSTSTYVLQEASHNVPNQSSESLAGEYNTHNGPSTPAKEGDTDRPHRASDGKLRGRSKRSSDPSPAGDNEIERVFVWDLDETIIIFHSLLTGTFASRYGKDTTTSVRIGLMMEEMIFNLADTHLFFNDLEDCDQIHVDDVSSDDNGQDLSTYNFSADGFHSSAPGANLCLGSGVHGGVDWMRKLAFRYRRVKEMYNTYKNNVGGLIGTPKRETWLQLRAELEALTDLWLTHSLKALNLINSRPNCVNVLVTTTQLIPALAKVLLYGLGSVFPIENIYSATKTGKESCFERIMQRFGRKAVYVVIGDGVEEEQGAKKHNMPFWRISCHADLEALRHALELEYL
Target sequence (Q15475 whole entry, looked up): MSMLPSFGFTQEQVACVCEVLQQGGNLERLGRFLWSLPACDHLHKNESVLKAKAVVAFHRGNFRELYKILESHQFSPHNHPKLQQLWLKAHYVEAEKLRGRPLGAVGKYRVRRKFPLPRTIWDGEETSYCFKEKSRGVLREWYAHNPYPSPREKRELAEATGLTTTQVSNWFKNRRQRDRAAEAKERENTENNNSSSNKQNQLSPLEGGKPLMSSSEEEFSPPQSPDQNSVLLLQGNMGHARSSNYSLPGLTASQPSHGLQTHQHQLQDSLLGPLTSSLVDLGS
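AlphaScreen luminescence read after one hour at 37 °C in darkness. Pin-transferred compounds met GST-Six1 and His-Eya2 protein (5X stock 250 nM/500 nM) plus glutathione donor and Ni-chelate acceptor beads (5X, 50 ug/mL).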
D2 potentiator: human D2 receptor positive allosteric modulation; P14416; DiscoveRx D2 beta-arrestin cells, luminescence, 90 min; 100% = 57 uM dopamine signal; potentiation, % (no concentration beside the values); 360,000 tested, 0.23% active; active = potentiation of 50% or more; inconclusive = 30% to 50%; inactive = 30% or less;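 also: compound concentration not given in the record; tested on top of an EC20 dose of dopamine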
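D2 cells co-treated with compound plus 50 nM dopamine (EC20) for 90 min at 37 deg C to detect potentiation. Beta-arrestin recruitment was read as enzyme-fragment luminescence after 1 h at ambient temperature. Full response was set by 57 uM dopamine.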
CtBP-E1A blk: blocks the CtBP interaction with E1A | AlphaScreen GST-E1A/His-CtBP binding, 1536-well; stronger effect = lower value; control for the full effect not named in the record | activity change, % (test concentration not listed) | 340,000 tested, 0.49% active | AID 651724; in the data active means activity change below about -65%; inconclusive means about -30% to -65%; inactive means above about -30%; also: % is scaled to controls: 0 for no effect and ±100 for the full control effect; compound concentration not given in the record
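AlphaScreen with 125 nM GST-E1A and 125 nM His-CtBP (5X stocks) in Tris pH 8.0, 300 mM NaCl, BSA, Tween 20, TCEP. Compounds preincubated 2 h at 37 deg C, then glutathione donor/nickel acceptor beads added for 1 h at 37 deg C in dark.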
D2 agonist: human D2 receptor agonism in beta-arrestin assay; 360,000 tested, 0.084% active; DiscoveRx PathHunter D2 beta-arrestin, luminescence, 90 min; 100% = 57 uM dopamine signal; P14416; activation, % (test concentration not listed); in the data active = activation above about 40%; inconclusive = about 15% to 40%; inactive = below about 15%; also: compound concentration not given in the record; the text of the record calls up to 30% inactive
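Agonist mode: compounds alone added to overnight-plated D2 PathHunter cells for 90 min at 37 C, with 57 uM final dopamine (EC100) defining full response. Beta-arrestin recruitment detected by chemiluminescent reagent, read after 1 h at ambient temperature.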
* = called active by the depositor; ? = inconclusive; / = not tested or not shown; [ ] = another dose, or the depositor's remark.

SMILES | gsp ag | gsp antag | Six1-Eya2 blk | D2 potentiator | CtBP-E1A blk | D2 agonist
c1ccc2nc(-c3nc4ccccc4[nH]3)ccc2c1 | 3% | -6% | 0 | -7 | -2 | -1.3
CN(Cc1cccc(F)c1)C(=O)c1ccc(NS(=O)(=O)c2ccc3[nH]c(=O)[nH]c3c2)cc1 | 0% | 12% | -3 | -9 | -15 | 0.9
COC(=O)c1ccc(CSc2nnc(CNC(=O)c3ccccc3F)o2)o1 | -17% | 5% | 1 | -16 | 4 | -1.9
CCN(CC)S(=O)(=O)c1ccc(OC)c(NS(=O)(=O)c2ccc(F)cc2)c1 | -34%[inhibitor] | -9% | 26 | 4 | 0 | -4.1
CS(=O)(=O)N1CCN(C(=S)NCc2ccc(Cl)cc2)CC1 | -19% | 14% | 8 | -7 | 5 | -0.2
C/C(=N\NC(=O)c1cc(Cl)ccc1O)c1ccc(Br)s1 | 12% | -1% | 4 | -15 | -3 | 0.4
Cc1ccc(-c2nc(CS(=O)CC(=O)NCCN3CCOCC3)c(C)o2)cc1 (stereo not drawn) | -76%[inhibitor] | 4% | 3 | -2 | 0 | -4.3
Cn1cc(Cl)nc1C(O)c1ccccc1 (stereo not drawn) | 11%[15.4 µM] | 3% | 2 | -24 | 0 | 0.8
O=C(c1cc(-c2ccc(Cl)c(Cl)c2)on1)N1CCOCC1 | 8%[15.4 µM] | 6% | 7 | -5 | -13 | -0.3
O=C(c1cc(C2CC2)nn1-c1ccccc1)N1CCN(c2ccccc2O)CC1 | -8%[15.4 µM] | -5% | -18 | 0 | -1 | 0.7
N#CC1(C#N)OC12CCS(=O)(=O)c1ccccc12 (stereo not drawn) | -5% | 11% | 2 | -20 | 23 | -2.5
O=C(NCc1ccccc1)C(c1cccs1)N(C(=O)c1csnn1)C1CC1 (stereo not drawn) | 9% | 1% | 2 | 12 | -1 | -0.9
COCCN(C(=O)CC(C)(C)C)c1nnc(-c2cccnc2)s1 | 12% | -5% | 6 | 3 | -2 | -0.2
CSCCC(NC(=O)c1ccccc1Cl)C(=O)NCc1ccncc1 (stereo not drawn) | -2% | 14% | -5 | 1 | 5 | 5.1
COc1cccc(-c2ccc3nccn3c2)c1 | / | / | 10 | -1 | 3 | 2.4
Cc1ccc(-n2ncc3c(NNC(=O)c4ccco4)ncnc32)cc1C | 8% | -13% | -5 | -13 | -17 | 0.6
Cc1ccccc1CSCC(=O)NC(=O)NC(C)(C)C | -62%[inhibitor] | -6% | 7 | 8 | 8 | 2.0
Cc1ccccc1OCC(=O)N/N=C/c1ccc(N2CCOCC2)o1 | -15% | -7% | 12 | -14 | -11 | -2.0
CC(C)CSc1nc(N2CCOCC2)c2c(c1C#N)CC(C)(C)SC2 | 9% | -10% | 4 | -5 | -3 | -0.9
Cc1cccc(C)c1-n1nnnc1C(C1CC1)N1CCN(C/C=C/c2ccccc2)CC1 (stereo not drawn) | / | / | -17 | -3 | -26 | 9.8

Rewritten as comma-separated lines: three of the compounds above
Compound,gsp ag,gsp antag,Six1-Eya2 blk,D2 potentiator,CtBP-E1A blk,D2 agonist
Cc1ccc(-n2ncc3c(NNC(=O)c4ccco4)ncnc32)cc1C,8%,-13%,-5,-13,-17,0.6
Cc1ccccc1CSCC(=O)NC(=O)NC(C)(C)C,-62%[inhibitor],-6%,7,8,8,2.0
Cc1ccccc1OCC(=O)N/N=C/c1ccc(N2CCOCC2)o1,-15%,-7%,12,-14,-11,-2.0

(continued)
SMILES | gsp ag | gsp antag | Six1-Eya2 blk | D2 potentiator | CtBP-E1A blk | D2 agonist
CC(C)C[C@H]1CN=C(Nc2ccccc2)N1CC1CCCC1 | -6% | 5% | 1 | -7 | 5 | -0.4
COc1ccc2nc(SCc3cccc(C)c3)nc(C)c2c1 | -7% | 16% | 77 | -3 | 76 | -5.6
COc1ccc(C(=Cc2ccccc2[N+](=O)[O-])C(=O)O)cc1 | 8%[15.4 µM] | -7% | 3 | -20 | -3 | -3.6
Cc1cc(C)n2c(SCC(=O)Nc3cccc(S(N)(=O)=O)c3)nnc2n1 | ? | 10% | -2 | 1 | -5 | -2.0
COc1ccc(-c2csc(NC(=O)c3ccc(S(=O)(=O)N4CCc5ccccc5C4)cc3)n2)cc1 | -2%[15.4 µM] | -1% | -18 | -8 | -14 | -4.7
Cc1ccc(S(=O)(=O)c2cc(OC(=O)c3ccco3)ccc2OC(=O)c2ccco2)cc1 | ? | 4% | ? | 21 | -8 | 5.5
COc1cccc(C(N)=O)c1OC(=O)Cc1ccccc1F | -1% | -8% | 4 | -3 | -1 | -3.3
CC1=NNC(=O)C1CC(=O)N/N=C/C(C)=C/c1ccccc1 (stereo not drawn) | 7% | 0% | 5 | -3 | -5 | 1.0
CCc1ccc2c(c1)C(c1ccncc1)=NNC(c1ccccc1)=N2 | -33%[inhibitor] | -6% | -3 | -7 | / | -3.1
Fc1cccc(CCN2C(=S)NC[C@@H]2Cc2ccccc2)c1 | -25% | 6% | -5 | -2 | 2 | -1.1
CC(=O)NCCc1nc2cc(NC(=O)COc3cccc(C)c3)ccc2n1C | 11% | 4% | 1 | -4 | -1 | -3.8
CC(C)OC(=O)N(C)c1ccc(C(O)(C(F)(F)F)C(F)(F)F)cc1 | -8% | -20% | 2 | -5 | 6 | 3.1
Cc1cccc(N2CCN(S(=O)(=O)c3ccc4c(c3)CC(=O)N4C)CC2)c1C | 8% | 3% | -4 | -10 | / | 0.5
O=C(C1CCN(S(=O)(=O)c2cccc3cccnc23)CC1)N1CCN(Cc2ccccc2)CC1 | 28% | -10% | -10 | -12 | -5 | -7.5
CSc1nc2ccccc2cc1/C=C(\C#N)c1ccc(Cl)c(Cl)c1 | 9% | -1% | 0 | 13 | -7 | 0.1
CCOc1ccc(OCCCC(=O)N(C)CC(=O)Nc2ccc(N3CCOCC3)cc2)cc1 | -62%[inhibitor] | 3% | 1 | 20 | -20 | -2.9
Cc1ccc(C(C#N)c2ccc(C(=O)c3ccc(F)cc3)cc2)cc1 (stereo not drawn) | -38%[inhibitor] | 17% | 1 | -3 | 6 | -1.7
NNc1ncnc2sc3c(c12)CCC3 | 12%[15.4 µM] | -1% | ? | -9 | -23 | 2.8
CN(/C=C/C(=O)C(F)(F)C(F)(F)F)Cc1ccccc1 | -40%[inhibitor] | 1% | 1 | -4 | 5 | -2.4
CCCNS(=O)(=O)c1cccc(C(=O)NNC(=O)c2cc(C)oc2C)c1 | -5%[15.4 µM] | 11% | -4 | -6 | -6 | -5.0
Cc1cc(S(=O)(=O)NC2CCCC2)ccc1-n1cnnn1 | -3% | 4% | 1 | -3 | -3 | -2.1
CCc1nc2ccc(C(=O)NCc3ccc(OC)cc3)cn2c1N(CCC(C)C)CCN(C)C | / | / | -1 | -9 | 0 | -2.8
C=C1[C@@H](CCO)N(S(=O)(=O)C(C)(C)C)C[C@@H]1C | / | 14% | 16 | / | 2 | 1.4
Cc1cc(C)c2oc(C(=O)Nc3ccc(S(=O)(=O)N4CCCC(C)C4)cc3)cc(=O)c2c1 (stereo not drawn) | -42%[inhibitor] | -11% | -1 | -8 | 14 | 6.0
CCCCNC(=O)C1(C)CCCCN1C(=O)c1cccs1 (stereo not drawn) | / | / | 3 | -2 | 3 | -1.7
CC(=O)N1CCN(S(=O)(=O)c2cccc(C(=O)Nc3ccc4c(c3)CCC4)c2)CC1 | 22% | -14% | -25 | -3 | -15 | 0.0
Nc1cc(=O)n(Cc2ccco2)c(=S)[nH]1 | 12% | / | 1 | 0 | 4 | -4.2
C[C@@H](N)C(=O)NC[C@H]1CC[C@H](C(=O)N[C@@H](Cc2ccccc2)C(=O)O)CC1 | 2% | 8% | 4 | -5 | -19 | 0.4
COc1ccc2[nH]c(C(=O)N3CCN(c4ccccc4F)CC3)c(C)c2c1 | -49%[inhibitor] | -2% | -15 | -10 | / | -0.7
CC1CCCN(C(=O)C2CCN(Cc3ccc4c(c3)OCO4)CC2)C1 (stereo not drawn) | -12%[15.4 µM] | -2% | -3 | -10 | 5 | -0.9
COc1cc(NC(=O)COC(=O)CNC(=O)c2ccc(Cl)cc2)c(C)cc1[N+](=O)[O-] | -9% | -20% | -4 | -14 | -3 | -1.8
Cc1cc(Cl)c(S(N)(=O)=O)cc1OCC(N)=O | 2% | 13% | 3 | -6 | 6 | -3.6
COc1ccccc1-c1cnc2c(c1)C(=O)N([C@@H](C)CO)C[C@@H](C)[C@@H](CN(C)C(C)=O)O2 | -10% | / | 4 | -1 | 4 | -8.8
COC(=O)c1ccc(/C=N\NC(=O)c2c(C)nc3ccc(Cl)cn23)cc1 | -13% | 7% | -2 | 2 | / | -5.5
CCOCC(=O)Nc1cc([N+](=O)[O-])ccc1C | -6%[15.4 µM] | 11% | 3 | -9 | 0 | -6.7
O=C(NCCCN1CCCC1=O)c1cn(-c2ccccc2)nc1-c1ccccc1 | 10%[15.4 µM] | 6% | 1 | -7 | -2 | -5.8
COc1ccc(CCN2CCCC(CN(C)Cc3cc(OC)c(OC)c(OC)c3)C2)cc1 (stereo not drawn) | 56%[15.4 µM] | 4% | -4 | -12 | 3 | -1.0
O=C(O)c1ccc(Sc2nnc3ccccn23)c([N+](=O)[O-])c1 | -20%[15.4 µM] | 4% | 4 | -4 | 4 | -1.6
O=C(CN(c1ccc(F)cc1)S(=O)(=O)c1ccccc1)NC1CC2CCC1C2 (stereo not drawn) | 6% | -4% | 1 | -31 | -7 | -2.6
c1ccc(CN2CCC(N3CCC(N4CCCCCC4)CC3)CC2)cc1 | 20%[15.4 µM] | -2% | 4 | -3 | 5 | 3.2
CC(C)c1ccc(NC(=O)c2ccccc2NC(=O)C2CCCCC2C(=O)O)cc1 (stereo not drawn) | -28% | -14% | 7 | -3 | 6 | -4.4
CC1(C)CC(=O)c2c(S(C)(=O)=O)sc(Br)c2C1 | 4% | -20% | 5 | -10 | -20 | -3.7
CCOCCCNCc1cc(Cl)ccc1OCC | 14% | 8% | 2 | -4 | 7 | 2.2
CCCCN(C(=O)c1cc(S(=O)(=O)N2CCOCC2)ccc1F)c1c(N)n(CCCC)c(=O)[nH]c1=O | 5% | 4% | 3 | -6 | 8 | -6.7
CCOC(=O)C1=C[C@@H](C2CCCC2)N(S(=O)(=O)c2ccc([N+](=O)[O-])cc2)[C@H]1c1ccccc1 | / | / | -30 | 13 | ? | 8.9
O=C(COC(=O)C12CC3CC(CC(C3)C1)C2)NCc1ccccc1 | 2% | -5% | 3 | -4 | / | 1.7
Cc1ncc([N+](=O)[O-])n1CC(=O)Nc1ccc(F)cc1 | 6%[15.4 µM] | -3% | 3 | -6 | 6 | -1.4
COc1ccc(NC(=O)Cn2cc(C(=O)c3ccco3)c3ccccc32)cc1 | -56%[inhibitor] | -5% | -13 | -13 | -8 | 0.2
CC(C)OC(=O)Nc1ccc2c(c1)N(C(=O)CCN1CCN(CCO)CC1)c1ccccc1CC2 | -13%[15.4 µM] | 4% | -4 | 1 | -7 | -4.7
